# A647 fluor = qHTS Assay for Spectroscopic Profiling in A647 Spectral Region | 59,000 tested, under 10 active | Compound fluorescence, A647 channel (570/671 nm), Tris buffer | max dye-equivalent concentration, M; active means above 1 µM dye equivalent; inconclusive means 0.1 to 1 µM; inactive means 0.1 µM or less;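 further: values scaled relative to a standard on each plate; highest value over a series up to 38 µM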
#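 Each compound's intrinsic fluorescence at 570 nm excitation and 671 nm emission is measured across its concentration series in 100 mM Tris, pH 8.0, after 15 min at room temperature, and reported relative to an A647 curve.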
# Resorufin fluor = qHTS Assay for Spectroscopic Profiling in Resorufin Spectral Region. Compound fluorescence, resorufin region 547/598 nm, buffer; stronger effect = higher value. max dye-equivalent concentration, M. hit rate 0.04% among 59,000; active = above 10 nM dye equivalent; inconclusive = 1 to 10 nM; inactive = 1 nM or less; a few of its hits are not listed in these tables; further: highest value over a series up to 38 µM
#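 Read-out: intrinsic compound fluorescence at ex 547/em 598 nm after 15 min at RT in pH 8.0 Tris (100 mM). Values expressed as resorufin-equivalent concentration from per-plate standard series.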
# AID923 = qHTS Assay for Allosteric/Competitive Inhibitors of Caspase-1: Spectroscopic Profiling in AFC Spectral Region; compound fluorescence, AFC spectral region (405/520 nm); almost no hit is shown here; Potency, µM (doses to about 57.5 µM), without a hit: at the highest dose fluorescence increase, actives largely listed as activators; hit rate 1.1% among 75,000; active means well fitted activation curve with a large enough effect; inconclusive means small, poorly fitted or top-dose-only effect;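 further: potency means the concentration at half of the fitted maximal effect; 0% is about no effect; scaled to a free AFC standard on each plate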
#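 Baseline compound fluorescence (AFC region, 405 nm ex/520 nm em) taken from the intercept of kinetic reads with 50 nM caspase-1 and 5 uM Ac-WEHD-AFC; normalized to an on-plate AFC standard curve; compounds titrated up to 57 uM.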
# A488 fluor = qHTS Assay for Spectroscopic Profiling in A488 Spectral Region | max dye equivalency, M | compound autofluorescence, A488 spectral region, dye equivalency; stronger effect = higher value | AID 591, 2007 | hit rate 0.1% among 59,000; active = above 10 nM dye equivalent; inconclusive = 1 to 10 nM; inactive = 1 nM or less; about half of its hits are not listed in these tables;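 further: highest value over a series up to 38 µM; compound alone in buffer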
#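 Autofluorescence read at ex 480/em 540 nm after 15 min RT in 100 mM Tris pH 8.0; compound signal normalized to A488 standard series on each plate, reported as dye-equivalent concentration at each test concentration.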
# TSHR ag = qHTS Assay for Agonists of the Thyroid Stimulating Hormone Receptor; Thyrotropin receptor (Homo sapiens), P16473; HEK293-CNG-TSHR cells (CNG channel as cAMP sensor), membrane potential dye, cAMP; Potency, µM (series often up to 57.1 µM), without a hit: top-dose activation, actives largely listed as activators; hit rate 0.48% among 73,000; AID 926, 2007; active = well fitted activation curve of enough size with the parental cells flat; inconclusive = any curve in the parental cells; inactive = parental cells flat and receptor cells flat or falling; further: potency means the concentration at half of the fitted maximal effect; % of control where 0% means no effect; weak receptor curves with flat parental cells got no call and are not listed
# Target sequence (P16473 whole entry, looked up): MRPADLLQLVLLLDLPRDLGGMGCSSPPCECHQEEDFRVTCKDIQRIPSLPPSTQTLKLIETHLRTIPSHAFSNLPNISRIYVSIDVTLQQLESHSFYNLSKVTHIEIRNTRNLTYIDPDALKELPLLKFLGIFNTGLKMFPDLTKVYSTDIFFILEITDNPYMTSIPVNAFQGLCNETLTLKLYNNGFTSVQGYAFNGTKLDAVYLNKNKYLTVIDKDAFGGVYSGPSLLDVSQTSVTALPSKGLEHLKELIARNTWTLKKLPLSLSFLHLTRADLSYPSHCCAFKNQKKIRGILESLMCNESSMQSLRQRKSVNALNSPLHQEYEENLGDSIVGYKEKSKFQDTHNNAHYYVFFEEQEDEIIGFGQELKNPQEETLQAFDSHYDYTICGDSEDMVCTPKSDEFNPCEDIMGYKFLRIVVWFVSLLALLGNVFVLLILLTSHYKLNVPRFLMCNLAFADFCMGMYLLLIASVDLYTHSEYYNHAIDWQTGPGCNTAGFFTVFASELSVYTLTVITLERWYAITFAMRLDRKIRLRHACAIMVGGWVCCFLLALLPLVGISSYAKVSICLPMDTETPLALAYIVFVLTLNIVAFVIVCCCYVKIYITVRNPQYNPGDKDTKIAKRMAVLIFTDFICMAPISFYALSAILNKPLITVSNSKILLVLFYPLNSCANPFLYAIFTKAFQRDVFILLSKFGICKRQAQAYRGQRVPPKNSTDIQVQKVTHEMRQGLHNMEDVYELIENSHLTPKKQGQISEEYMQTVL
#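 cAMP rise detected as CNG-channel membrane depolarization by fluorescent dye (emission 590 nm), 30 min after compound, following 60 min dye loading containing 100 uM RO 20-1724 at room temperature. Cells: TSHR/CNG HEK 293, with parental CNG HEK 293 as control.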
# * = called active by the depositor; i = inactive; ? = inconclusive; . = not tested or not shown; & = joins results of further samples; [ ] = another dose, or the depositor's remark. This is a subset; rates above refer to the full screens.
SMILES,A647 fluor,Resorufin fluor,AID923,A488 fluor,TSHR ag
O=C(OCC(=O)N1CCN(c2ccccc2)CC1)c1ccco1,2.4e-08,i,-1.6%,i,2%
Nc1nonc1C(=O)NCCc1ccccc1,.,.,0.7%,.,-8%
Cc1ccc([N+](=O)[O-])c(C)c1,.,.,2.9%,.,-4%
COc1cccc(C2N(c3ccc(Cl)c(Cl)c3)C(=O)C3CCCN32)c1OC (centres undefined),1e-09,i,2.1%,i,?
CC(=O)Nc1ccc(S(=O)(=O)NCc2ccc(C(=O)NCc3ccc4c(c3)OCO4)cc2)cc1,2.2e-08,i,0.3%,i,-1%
Cc1ccccc1CN(c1ccc(C(=O)N2CCCC2)cc1)S(C)(=O)=O,3.1e-09,i,0.5%,i,17%
O=C(NCCCN1CCOCC1)c1cc2cc(Br)ccc2oc1=O,2.8e-08,i,1.0%,i,?
COc1ccc(C2CC(=O)N3CN(c4ccccc4F)CSC3=C2C#N)cc1OC (centres undefined),.,.,20%,.,?
CC(=O)Nc1cccc(-c2nc3ccc(NC(C)=O)cc3[nH]2)c1,2.2e-08,i,0.7%,i,-5%
CCOC(=O)c1nnn(-c2nonc2N)c1-c1ccc(OCC)cc1,1.8e-08,i,-4.7%,i,?
O=C(CSc1nccn1-c1ccc(F)cc1)NCc1ccc2c(c1)OCO2,1.7e-08,i,0.1%,i,4%
CCn1c(SCC(=O)N2CCCc3ccccc32)nc2ccccc2c1=O,1e-09,i,-0.4%,i,?
Clc1ccc(-n2ncc3c(NCc4ccco4)ncnc32)cc1,2.4e-08,i,.,i,.
COC(=O)C1=C(N)n2c(s/c(=C\c3cccnc3)c2=O)=C(C(=O)OC)C1c1cccnc1 (centres undefined),3e-08,i,1.6%,i,-3%
N#Cc1c(NC(=O)CSC2=NCCS2)sc2c1CCCC2,1.5e-08,i,1.9%,i,?
C=C(C)CSc1nc(N)c2c3c(sc2n1)CCC3,1.9e-09,i,.,i,.
CCN(CC)c1ncc(C)c(=O)[nH]1,5.6e-08,i,.,i,.
O=C(NC1=NCCS1)c1ccc2c(c1)C(=O)N(Cc1ccco1)C2=O,1e-09,i,-1.2%,i,24%
CCOC(=O)c1c(C)n(C)c2ccc(OCC(O)CN(CC)CC)cc12 (centres undefined),.,.,1.4%,.,6%
Cc1cc(O)c(C(C)C)cc1N=Cc1ccccc1O,1.4e-08,i,1.0%[11.5 µM],i,0%[11.4 µM]
Cc1cccc2cc(COC(=O)C(C)C)c(=O)[nH]c12,3.3e-08,i,-0.3%,i,10%
COC(=O)c1c(C)n(-c2ccc(OC)cc2)c2ccc(O)cc12,4.9e-08,i,-1.9%,i,.
COc1ccc(OC)c(NC(=O)CC(Cc2ccccc2OC)C(=O)O)c1 (centres undefined),1e-09,i,1.7%,i,-3%
CCOc1ccc(C2/C(=C(\O)c3c(C)[nH]c(C(=O)OC)c3C)C(=O)C(=O)N2CCN(C)C)cc1 (centres undefined),6.6e-09,i,-1.1%,i,-6%
CCC/C=C(\CCC)C(NC(=O)OCC(C)C)c1ccc(C(=O)OC)cc1 (centres undefined),.,.,3.2%,.,?
SMILES,A647 fluor,Resorufin fluor,AID923,A488 fluor,TSHR ag
Cc1cc(N2C(=O)C(=O)/C(=C(/O)c3ccc(F)cc3)C2c2ccc(Cl)cc2)no1 (centres undefined),9.9e-09,i,-4.3%,i,?
Cn1cccc1C(=O)NC(=O)COC(=O)c1ccccc1O,1e-09,i,0.8%,i,-4%
Cc1nnc(NC(=O)c2ccc(-c3cccc(C(F)(F)F)c3)o2)s1,2e-08,i,-0.7%,i,9%
O=C(Nc1ccccc1)N1CCC(C(=O)N(Cc2ccco2)Cc2cccs2)CC1,1.9e-08,i,-0.1%,i,10%
Cc1ccc2nsnc2c1S(=O)(=O)N1CCN(CCc2ccccc2)CC1,4.8e-09,i,0.5%,i,-27%
C=C(C)c1cccc(C(C)(C)NC(=O)Nn2cnnc2)c1,1e-09,i,-1.4%,i,3%
O=C(COC(=O)C1CCCCC1C(=O)N1CCc2ccccc21)NCc1ccco1 (centres undefined),1.1e-08,i,-0.1%,i,?
CCc1ccc(NC(=O)CSc2nnc(Cn3c(=O)sc4ccccc43)n2C)cc1,.,.,3.8%,.,9%
COC(=O)c1c(C)[nH]c(C)c1C(=O)c1ccccc1Cc1ccccc1,4e-08,i,-1.2%,i,?
Cc1[nH]nc(N=Cc2c(O)n(C)c(=O)n(C)c2=O)c1-c1ccccc1,1e-09,i,-0.6%,i,-4%
COc1ccc(NC(=O)Nc2c(C)n(C)n(-c3ccccc3)c2=O)cc1,.,.,2.7%,.,?
CCOC(=O)c1[nH]c(C)c(C(=O)N(C)C)c1C,7.8e-09,i,0.0%,i,-3%[11.4 µM]
O=C1C=C(NCC2CCCO2)C2(CCCCC2)O1 (centres undefined),5.5e-09,i,0.5%,i,3%
COC(=O)c1c(C)cc(C)n2c1nc1ccccc12,3.8e-09,i,16%,i,8%
Cc1nn(C)c(C)c1CN(C)C(=O)c1cc2n(n1)C(C(F)(F)F)CC(c1cccs1)N2 (centres undefined),3.4e-08,i,0.7%,i,15%
Cc1cc(C)cc(C(=N)c2ccccc2Cc2cccc3ccccc23)c1,1.1e-09,i,-0.3%[11.5 µM],i,4%[11.4 µM]
Cn1c(=O)c2c(nc(NCCCO)n2CCc2ccccc2)n(C)c1=O,4.3e-09,i,-2.7%,i,0%
Cc1cc(NS(=O)(=O)c2ccc(NC(=O)COc3ccccc3Cl)cc2)no1,1e-09,i,-1.0%,i,-6%
CSc1nnc(-c2ccco2)c(-c2ccco2)n1,4.1e-08,i,3.1%,i,0%
Cc1ccccc1N(Cc1nnc2n1CCCCC2)C(=O)Nc1ccccc1,4.3e-08,i,-2.3%,i,0%
Cc1ccc(-c2cc3nc4c(c(=O)n3[nH]2)CCCC4)cc1,.,.,-1.3%,.,5%
CSc1nnc(-c2ccc(S(=O)(=O)N3CCOCC3)cc2)n1CC1CCCO1 (centres undefined),6.5e-09,i,0.8%,i,2%
COc1cc(-c2nnc(SCC(=O)N3CCCC3)o2)cc(OC)c1OC,3.2e-08,i,-0.9%,i,-2%
Cn1c(=O)c2c(nc(NC(Cc3ccccc3)C(=O)O)n2Cc2ccccc2)n(C)c1=O (centres undefined),6.2e-09,i,-0.3%,i,?
COc1ccc(S(=O)(=O)Nc2ccc(S(=O)(=O)N3CCCCC3)cc2)cc1OC,3.7e-09,i,-0.9%,i,-11%

# Ordered by formula weight (high to low): part of the list above
SMILES,A647 fluor,Resorufin fluor,AID923,A488 fluor,TSHR ag
Cc1nn(C)c(C)c1CN(C)C(=O)c1cc2n(n1)C(C(F)(F)F)CC(c1cccs1)N2 (centres undefined),3.4e-08,i,0.7%,i,15%
CCc1ccc(NC(=O)CSc2nnc(Cn3c(=O)sc4ccccc43)n2C)cc1,.,.,3.8%,.,9%
CSc1nnc(-c2ccc(S(=O)(=O)N3CCOCC3)cc2)n1CC1CCCO1 (centres undefined),6.5e-09,i,0.8%,i,2%
Cc1ccc2nsnc2c1S(=O)(=O)N1CCN(CCc2ccccc2)CC1,4.8e-09,i,0.5%,i,-27%
COc1cc(-c2nnc(SCC(=O)N3CCCC3)o2)cc(OC)c1OC,3.2e-08,i,-0.9%,i,-2%
Cc1ccccc1N(Cc1nnc2n1CCCCC2)C(=O)Nc1ccccc1,4.3e-08,i,-2.3%,i,0%
Cc1nnc(NC(=O)c2ccc(-c3cccc(C(F)(F)F)c3)o2)s1,2e-08,i,-0.7%,i,9%
C=C(C)c1cccc(C(C)(C)NC(=O)Nn2cnnc2)c1,1e-09,i,-1.4%,i,3%
CSc1nnc(-c2ccco2)c(-c2ccco2)n1,4.1e-08,i,3.1%,i,0%
COC(=O)c1c(C)cc(C)n2c1nc1ccccc12,3.8e-09,i,16%,i,8%
CCOC(=O)c1[nH]c(C)c(C(=O)N(C)C)c1C,7.8e-09,i,0.0%,i,-3%[11.4 µM]

# Further entries follow.
SMILES,A647 fluor,Resorufin fluor,AID923,A488 fluor,TSHR ag
COC(=O)N1CC=CC1(C)C(=O)NCC1CC1 (centres undefined),.,.,0.5%,.,15%
CCOc1ccc(C(=O)Nc2c3c(nn2C(C)(C)C)CSC3)cc1OCC,1e-09,i,1.0%,i,-5%
CC(=O)Nc1ccc(NC(=O)c2cc(C)nn2-c2ccccc2)cc1,1e-09,i,1.7%,i,?
CCC1CCCCN1CCCn1c(=S)[nH]c2ccccc2c1=O (centres undefined),3e-08,i,-1.2%,i,7%[11.4 µM]
CN(C)c1ccc(N=Cc2ccco2)cc1,.,.,1.6%,.,-38%[inhibitor]
O=C(Cc1ccccc1)Nc1cccc(N2CCCC2)c1,1e-09,i,-1.3%,i,-16%
Cn1cc(Cl)nc1C(O)c1ccccc1 (centres undefined),9.9e-09,i,.,i,.
Cc1ccc2oc(Nc3nc(C)cc(C)n3)nc2c1,.,.,-0.3%,.,7%
Nc1nc(N)c2[nH]c(CNc3ccc(C(=O)O)cc3)nc2n1,2.6e-08,i,0.6%[11.5 µM],i,0%[11.4 µM]
N#CC1(c2c(O)nc3n(c2=O)CCCS3)CCCCC1,2.5e-08,i,0.6%,i,2%
CCc1[nH]nc2c1C1(CCN(C(=O)OCc3ccccc3)CC1)C(C#N)=C(N)O2,2.8e-08,i,-0.6%,i,-19%
CC(C)(C)C(=O)Cn1c(=O)n(CC2CCCO2)c(=O)c2ccccc21 (centres undefined),1e-09,i,-0.4%,i,13%[11.4 µM]
CC(C)(C)NC(=O)C(c1ccccc1)N(C(=O)c1csnn1)C1CC1 (centres undefined),2.9e-08,i,1.0%,i,3%
CCN(CC)S(=O)(=O)c1ccc2c(c1)nc(CCC(=O)OCc1c(C)noc1C)n2C,8.9e-09,i,1.0%,i,?
CN(C)Cc1c(O)ccc2[nH]cnc12,1e-09,i,-0.4%,i,-1%
Cc1c(C#N)c2ccccc2n1CC(=O)NCCc1c[nH]c2ccccc12,.,.,-0.3%,.,-9%
N#Cc1nc(COc2ccc(Br)cc2)oc1N1CCCCCC1,.,.,1.4%,.,?
CC(C)(C)NC(=O)CSc1nnc(NC(=O)CCn2cnc3ccccc3c2=O)s1,1e-09,i,-0.4%,i,-3%
CCOC(=O)N1CCN(C(=O)CN(c2ccc(C)c(C)c2)S(=O)(=O)c2ccccc2)CC1,.,.,0.9%,.,12%
CCC(C)NC(=O)c1ccccc1NS(=O)(=O)c1ccc(OC)c(OC)c1 (centres undefined),8.4e-08,i,-2.2%,i,7%
CC1(C)Cc2c(c(N3CCOCC3)nc3sc(C#N)c(N)c23)CS1,2.7e-09,i,.,i,.
COc1ccc2c(c1OC)C(=O)N1c3ccccc3C(=O)N(c3ccccc3)C21 (centres undefined),8.8e-08,i,.,i,.
Cn1c(=O)c2[nH]c(C3CCCC3)nc2n(C)c1=O,1e-09,i,-1.5%&-6.1%,i,8%
CCOC(=O)CCc1c(C)c2ccc(OCC(=O)N(CC)CC)c(C)c2oc1=O,1e-09,i,-0.1%,i,18%
Cc1cc(CNC(=O)C(C)Cc2ccccc2)nn1C (centres undefined),.,.,-1.1%,.,-1%
CCOc1ccccc1NC(=O)CC1Nc2ccccc2NC1=O (centres undefined),6.2e-08,i,3.9%,i,-1%
Cc1ccc(C)c(C(=O)N(Cc2nc(-c3ccc(Cl)cc3)no2)C(C)C)c1,.,.,-0.4%,.,?
Cc1ccc(CC2CC(=O)N(Cc3ccco3)C2=O)cc1 (centres undefined),.,.,1.9%,.,-10%
COC(=O)[C@@]1(Cc2ccc(OC)cc2)[C@H]2c3cc(C(=O)N4CCCC4)n(CCc4ccccn4)c3C[C@H]2CN1C(=O)c1ccccc1,.,.,0.2%,.,?
